Source: PubChem BioAssay (Center for Chemical Genomics, University of Michigan)
CDC25B-CDK2 inh = human CDC25B-CDK2/CyclinA binding inhibition; P30305+P24941; HTRF CDC25B-CDK2/CyclinA binding, anti-His/anti-Flag; active compounds read high; z-score (no concentration beside the values); hit rate 0.72% among 94,000; AID 1259370;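 note: score is relative to mean and SD of negative controls; strong numbers were not always called active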
TAR Tat displ = HIV-1 TAR-Tat binding disruption | HIV-1 TAR RNA, Tat peptide displacement FRET; active compounds read high | z-score (concentration not given with the values) | hit rate 0.6% among 100,000 | AID 1259389;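 note: score is relative to mean and SD of negative controls; some compounds called inactive have numbers as strong as hits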
* hit, by the source's call; . = not tested or not shown.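 Rule for the calls: active = z-score from 3 up in half or more of its runs; inactive = the rest.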

smiles	CDC25B-CDK2 inh	TAR Tat displ
CCCCN1CCC(O)(C#N)CC1	-1.9	.
CC(C)CC(=O)Nc1nc2ccccc2o1	.	1.3
COc1ccc(S(=O)(=O)NC(C)(C)CO)cc1-c1nnc2c3ccccc3c(C)nn12	0.63	-0.06
CC(C)Nc1cc(Br)c2noc3c2c1C(=O)c1ccccc1-3	-1.9	-4.5
O=C(NCc1ccco1)C1CCN(S(=O)(=O)c2cnc[nH]2)CC1	0.12	0.41
CC1CCCC(NC(=O)c2cc(S(=O)(=O)N3CCOCC3)cn2C)C1C (stereo not drawn)	.	1.5
CCCOc1ccc(OC(=O)c2sc3ccccc3c2N)cc1	.	1.4
O=C(CSc1nnc2scc(-c3ccc(Cl)cc3)n12)Nc1nc(-c2ccccc2)ns1	0.63	-0.02
CC1CCCN(C(=O)CN(C)S(=O)(=O)c2ccc3c(c2)CC(C)N3C(=O)C2CC2)C1 (stereo not drawn)	.	0.04
O=C(NC1CCCc2ccccc21)C1CCCN(S(=O)(=O)c2ccc3[nH]c(=O)ccc3c2)C1 (stereo not drawn)	.	-1.2
COc1ccc(OC)c(S(=O)(=O)NCCS(=O)(=O)N2CCN(c3ccccc3OC)CC2)c1	.	0.07
CC1CC(C)CN(C(=O)Cn2c(=O)c3cccn3c3cccnc32)C1 (stereo not drawn)	.	-1.1
CCOC(=O)c1c(S(=O)(=O)Nc2cc(OCC)ccc2OCC)c(C)n(C)c1C	.	1.6
Cc1cc(=O)[nH]c(SCC2COC3(CCCCC3)O2)n1 (stereo not drawn)	-0.18	.
Cc1cc(NC(=O)Nc2c(C)n(C)n(-c3ccccc3)c2=O)ccc1Br	-1.4	-0.48
O=C(c1cc2c(s1)-c1ccccc1S(=O)(=O)C2)N1CCN(c2ccccc2F)CC1	-1.6	1.3
CCOC(=O)CSc1cc(Nc2ccc(Br)cc2)ncn1	-1.2	-0.6
CN1CCN(C(=O)c2ccc(CN3C(=O)CSc4ncccc43)cc2)CC1	.	2.4
COc1ccc(-n2ccn3c(CCC(=O)NC4CC4)nnc3c2=O)cc1	.	-1.3
O=C(Cn1cnc(S(=O)(=O)N2CCCC2)c1)N1CCCc2ccccc21	.	0.43
Cc1ccc(NC(=O)N2CCn3c(C)ccc3C2C(C)C)c(C)c1 (stereo not drawn)	.	-0.45
CC(=O)Nc1ccc(NC(=O)CCC(=O)OCC(=O)c2ccc(C)c([N+](=O)[O-])c2)cc1	-2.2	.
Cc1nc(SCC(=O)OCc2ccccc2)cc(-c2ccccc2)n1	-2	-0.31
COC(=O)c1sccc1-n1cccc1	-0.28	0.67
CCOc1ccc(S(=O)(=O)Nc2ccc3oc4c(c3c2)CCCC4)cc1	0.47	.

In the list so far, these have an NH in an aromatic ring:
smiles	CDC25B-CDK2 inh	TAR Tat displ
O=C(NCc1ccco1)C1CCN(S(=O)(=O)c2cnc[nH]2)CC1	0.12	0.41
O=C(NC1CCCc2ccccc21)C1CCCN(S(=O)(=O)c2ccc3[nH]c(=O)ccc3c2)C1 (stereo not drawn)	.	-1.2
Cc1cc(=O)[nH]c(SCC2COC3(CCCCC3)O2)n1 (stereo not drawn)	-0.18	.

Additional records
smiles	CDC25B-CDK2 inh	TAR Tat displ
CN(C)c1ccc(C2(c3ccc(N(C)C)cc3)OC(=O)c3ccccc32)cc1	-1.3	1.9
COc1cccc(-c2noc3ncnc(N4CCN(C)CC4)c23)c1	.	0.58
O=C(O)c1cc(-c2ccc(Br)cc2)nc2ccc(Cl)cc12	-2	.
CC(NC(=O)c1cccs1)C(c1cccs1)N1CCOCC1 (stereo not drawn)	-0.38	.
CCc1nn(C)c2c(=O)c(=O)c2n(C)[nH]1	-2.1	.
Cc1c(CN2CCCCC2C)c(=O)n(-c2ccccc2)n1C (stereo not drawn)	-0.74	.
Cc1c(C(=O)N2CCCCC2)c(S(=O)(=O)N(Cc2ccco2)C2CCCCC2)c(C)n1C	.	1
COC(=O)c1cnn(-c2ccc(Cl)cc2)c1C=Nc1ccc(C)cc1	-2.2	.
N=C1C(c2nc3ccccc3s2)=C(O)CN1CC1CCCO1 (stereo not drawn)	-1.9	0.51
O=C(NCc1ccc2c(c1)OCO2)C1CCCN(c2nn3c(=O)c4c(nc3s2)CCCC4)C1 (stereo not drawn)	.	1.6
CC(C)CS(=O)(=O)c1oc(-c2cccs2)nc1S(=O)(=O)c1ccc(F)cc1	-3.2	1.4
O=C(NC(NC(=S)Nc1ccc(F)cc1)C(Cl)(Cl)Cl)c1ccc(Cl)cc1 (stereo not drawn)	-1	.
N#Cc1c2ncnc(-c3ccc(Cl)cc3)c2n2ccccc12	-0.98	0.92
Cc1cccc(Cn2nc(-c3ccc(C)c(S(=O)(=O)N4CCCC4)c3)ccc2=O)c1	-0.46	-0.63
Cc1cn2c(=O)cc(CSCc3ccc(Cl)cc3)nc2s1	-2	-0.08
CCCS(=O)(=O)Nc1ccc2c(c1)N(S(=O)(=O)c1ccc(F)cc1)CCC2	.	0.86
Cc1cccc(N2CCN(c3nc4ccccc4n4nnnc34)CC2)c1C	-1.1	0.56
CCC(C)NC(=O)c1nn2c(c1Cl)NC(c1ccc(Cl)cc1)CC2C(F)(F)F (stereo not drawn)	-0.56	-0.72
Cc1ccc(C2OC3(C(=O)c4ccccc4C3=O)C3C(=O)N(C4CCCCC4)C(=O)C23)cc1 (stereo not drawn)	0.12	0.38
O=C(NCc1ccco1)C1(c2cccs2)CCOCC1	.	2.2
CCOC(=O)CNC1=C(C#N)C(=S)CC(C)(C)C1	-0.64	.
O=C(NCCc1csc2c1CCCC2)NCc1ccco1	.	-5.3
CC1CCc2c(sc3nnn(CC(=O)OCc4ccccc4)c(=O)c23)C1 (stereo not drawn)	0.21	0.01
CC(NC(=O)C12CC3CC(CC(C3)C1)C2)C(=O)Nc1ccc(S(=O)(=O)Nc2nccs2)cc1 (stereo not drawn)	-0.55	.
O=C(CCc1nnc2ccc(NCc3ccc4c(c3)OCO4)nn12)NCc1ccccn1	.	0.72
CCOC(=O)c1c(C)oc2cc(Br)c(OC(=O)C(C)C)cc12	-1.1	.
CC(C)OCCCNC(=O)CSc1c2c(nc3cc(Cl)ccc13)CCCC2	-1.9	-0.29
O=C(NCCCN1CCOCC1)c1cnc(N2CCOCC2)nc1	.	1.5
Fc1ccc(-c2ccc(CNCCCSc3nnnn3-c3ccccc3)o2)cc1	-0.29	-1.1
Cn1c(NCCCO)nc2c1c(=O)n(Cc1ccc(Cl)cc1)c(=O)n2C	0.91	0.15
CSc1sc(-c2ccn[nH]2)c(-c2cccs2)c1C#N	0.16	.
O=C(C1c2ccccc2Oc2ccccc21)N1CCN(c2ncccn2)CC1	-1.2	.
CC1CN(C(=O)CSc2nc(-c3ccccc3)nc3c2c(=O)n(C)c(=O)n3C)CC(C)O1 (stereo not drawn)	.	0.12
Cc1ccc2cccc(OCc3ccccc3)c2n1	-0.9	.
O=C1c2ccccc2C(=O)N1CCN1CCN(CCN2C(=O)c3ccccc3C2=O)CC1	-0.94	.
O=C(CCCN1C(=O)c2cccnc2Sc2ccccc21)N1CCN(c2ccccc2)CC1	.	0.93
CC(C)CC(NS(=O)(=O)c1ccc2c(c1)oc(=O)n2C)C(=O)NCc1ccco1 (stereo not drawn)	-0.89	-0.58
O=C(Cn1cnc2c(oc3ccccc32)c1=O)N1CCCCCC1	0.08	.
Cc1ccc(-n2ncc3c(NCc4ccco4)ncnc32)cc1C	.	1.5
O=C(c1cc2c(=O)n3ccccc3nc2s1)N1CCN(C(c2ccccc2)c2ccccc2)CC1	-0.77	-1.9
CN(C)CCCNc1oc(-c2ccc(Cl)cc2)nc1C#N	-1.2	-0.96
Cc1ccc(C2CC(=O)c3cnn(-c4nc(C)cc(C)n4)c3C2)cc1 (stereo not drawn)	-2.1	-1.4
CC(c1cccs1)N(C(=O)Nc1ccccc1)C1CCCCC1 (stereo not drawn)	.	0.33
COc1ccccc1C(=O)OCc1cc(=O)n2c(C)csc2n1	.	0.96
COc1cc2c(c(OC)c1OC)-c1ccc(OC)c(=O)cc1[C@@H](NC=O)CC2	.	2.4
COc1ccc2cc(CCNC(=O)CC(C)C)c(=O)[nH]c2c1	-0.19	.
C=C(C)CC1C(=O)N(S(=O)(=O)c2ccccc2Cl)N=C1C (stereo not drawn)	-0.38	.
Cc1ncc(-c2ccc(S(=O)(=O)N3CCCC3)cc2)o1	.	1.5
CCNC(=O)c1c(NC(=O)c2nc(SC)ncc2Cl)sc2c1CCCC2	-1.6	-1.8
COCCOC(=O)Cn1nnc2sc(-c3ccccc3)cc2c1=O	-1.9	2.1

New compounds follow
smiles	CDC25B-CDK2 inh	TAR Tat displ
Cc1ccc(-c2c(CN3CCOCC3)csc2C)cc1	.	2
Cc1noc2ncnc(N(CCO)c3ccccc3)c12	.	-0.55
N#Cc1c(-c2ccccc2)nc(SCCOc2ccccc2)[nH]c1=O	2	-0.33
CC(C)CCNC(=O)Cn1ncc2c1-c1ccccc1OC2	-0.03	0.04
Cc1noc(/C=C/N(C)C)c1S(=O)(=O)N(CCc1ccccc1)Cc1ccccc1	.	0.27
O=c1c2cc3c(cc2nc(SCc2nc(-c4ccccc4)no2)n1C1CC1)OCO3	.	2.5
Cc1cc2ncn(Cc3ccccc3C)c2cc1C	-0.3	2.1
CCOc1ccc(-c2cc(N)n(S(=O)(=O)c3ccc(OC)c(OC)c3)n2)cc1	-0.55	1.1
CC(=O)OC(OC(C)=O)C12C=CC(O1)C1C(=O)N(c3cccc(C(=O)O)c3)C(=O)C12 (stereo not drawn)	-0.16	.
Cc1cc2c(c(=O)n1Cc1cccs1)C(c1ccc3c(c1)OCO3)C(C#N)=C(N)O2 (stereo not drawn)	-1.8	.
CCOc1cc(C2C(C(=O)OC3CCCC3)=C(C)NC3=C2C(=O)CC(c2cccs2)C3)ccc1O (stereo not drawn)	-1.9	-0.25
Cc1nnc(SCC(=O)O)[nH]c1=O	-0.19	2
O=C1c2ccccc2C(Nc2ccccc2Cl)N1c1cccnc1 (stereo not drawn)	0.78	0.74
O=C(O)CSCC(=O)Nc1ccccc1N1CCCCC1	-0.26	.
COC(=O)C(=C(C)C)c1ccc(N(C)C)cc1	-0.81	.
C#CCN1C(=O)C(O)(c2c(C)[nH]c3ccccc23)c2ccccc21 (stereo not drawn)	-0.76	0.88
O=C1N2c3ccccc3Sc3cccc(c32)C1(O)C(F)(F)F (stereo not drawn)	-0.44	.
CCC(Sc1nc2ncccc2o1)C(=O)Nc1ccc2c(c1)OCCO2 (stereo not drawn)	.	0.72
CCOC(=O)c1c(C)sc([N+](=O)[O-])c1O	-0.88	-1.4
CCOC(=O)c1noc2nc(C)nc(Nc3ccc(OC)cc3OC)c12	.	0.9
c1ccc(N2CCCCC2)c(Nc2nc3ccccc3n3nnnc23)c1	-0.12	0.18
O=S1(=O)CCCCN1c1ccc(S(=O)(=O)N2CCC(Cc3ccccc3)CC2)cc1	.	2.2
Cc1cc(C(=O)NCCCN=C2NS(=O)(=O)c3ccccc32)c2ccccc2n1	-1.1	2.6
CCCS(=O)(=O)NCc1cn2ccc(C)cc2n1	-0.93	0.76
COc1ccc(C)cc1S(=O)(=O)Nc1cccc(N2CCCS2(=O)=O)c1	.	0.89

Compound profiles, as listed above. Values in the order: CDC25B-CDK2 inh | TAR Tat displ
CCOC(=O)c1c(C)sc([N+](=O)[O-])c1O in the list: -0.88 | -1.4
CCOc1cc(C2C(C(=O)OC3CCCC3)=C(C)NC3=C2C(=O)CC(c2cccs2)C3)ccc1O (stereo not drawn) in the list: -1.9 | -0.25
N#Cc1c(-c2ccccc2)nc(SCCOc2ccccc2)[nH]c1=O in the list: 2 | -0.33
c1ccc(N2CCCCC2)c(Nc2nc3ccccc3n3nnnc23)c1 in the list: -0.12 | 0.18

Among those listed so far, 2 contain a nitro group on carbon:
smiles	CDC25B-CDK2 inh	TAR Tat displ
CC(=O)Nc1ccc(NC(=O)CCC(=O)OCC(=O)c2ccc(C)c([N+](=O)[O-])c2)cc1	-2.2	.
CCOC(=O)c1c(C)sc([N+](=O)[O-])c1O	-0.88	-1.4

Next compounds follow:
smiles	CDC25B-CDK2 inh	TAR Tat displ
CN(CCCNC(=O)CCCn1c(=O)c2cccn2c2ccccc21)C1CCCCC1	.	1.1
Cc1ccc(CS(=O)(=O)c2ncc(Cl)c(C(=O)Nc3nnc(C(C)C)s3)n2)cc1	5.5*	0.97
CC(C)c1ccc(NC(=O)C2C3C=CC4(O3)C2C(=O)N(C2CC2)C4C(=O)NC2CCCCC2)cc1 (stereo not drawn)	0.02	-0.2
CCCCc1nn2c(=O)cc(CSc3n[nH]c(-c4ccccc4)n3)nc2s1	.	-0.09
O=C(c1noc2c1COc1ccccc1-2)N1CCCc2ccccc21	-1.2	0.45
O=C(Nc1cc(F)ccc1F)c1noc2c1CCc1sccc1-2	.	2.1
O=C1C(=O)N(c2nccs2)C(c2ccccc2)/C1=C(\O)c1ccc(Br)cc1 (stereo not drawn)	-2.6	0.22
O=C(Cn1cc(C(=O)C2CCCCC2)c2ccccc21)NCc1ccco1	0.6	0.06
Cc1oc2ncnc(N3CCOCC3)c2c1C(=O)N(CC(C)C)CC(C)C	.	0.67
COc1ccc(S(=O)(=O)N2CCN=C2SC)cc1OC	0.88	1.3
